Screening data: PubChem, ICCB-Longwood Screening Facility, Harvard Medical School
BasE inh: blocks the Acinetobacter baumannii siderophore enzyme BasE; purified BasE, fluorescence polarization binding displacement; inhibition, % (test concentration not listed); 84,000 tested, 0.1% active; AID 485350;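 active = both replicates above 25% with normal brightness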;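 also: 0% = negative plate control signal and 100% = positive plate control signal; stock transfer was 100 nL into about 30 µL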
KSHV LANA nucl: LANA-nucleosome interaction inhibition; FITC-LANA1-23 / chicken nucleosome fluorescence polarization; stronger effect = lower value; z-score (no concentration beside the values); 51,000 tested, 0.3% active; AID 720717;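 active = both repeat wells score below -2 in polarization z-score versus plate sample wells, excluding overly bright wells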;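 also: 100 nL library stock added to about 30 µL; numbers are from one replicate; some results filed as inactive read as strong as hits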
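Material: Purified chicken nucleosomes with FITC-labelled LANA N-terminal peptide (1-23) | Reagent: 50 nM FITC-LANA1-23 probe | Medium: TEN-BT buffer, pH 7.5 | Times: 10–45 min incubation at room temperature | Detection: Fluorescence polarization | Replication: Duplicates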
* hit, by the source's call; nt = no result given; & = joins results of further samples. These rows are one share of the data, so the mix of outcomes need not match the whole.

Structure,BasE inh,KSHV LANA nucl
CCOc1ccc(OCC)c(CC(C#N)C(=O)OC)c1 (stereo not given),3.3,-0.69
CC(C)C(c1nnnn1Cc1ccccc1)N1CCC(C(N)=O)CC1 (stereo not given),-0.7,1.4
COC(=O)/C(C#N)=C(\NCc1ccc(Cl)cc1Cl)SC,-2.3,nt
Cc1ccc(CNC(=O)C2c3ccccc3Oc3ccccc32)n1C,0.4,nt
O=S(=O)(c1ccccc1)N1CCN(C2CCCCCCC2)CC1,-0.3,0.85
O=C(c1ccco1)N1CCN(Cc2cccnc2)CC1,-0.9,nt
O=C(Nc1ccccn1)c1ccccc1Cl,0.3,-0.13
CC(C)c1ccc(-n2ccnc2SCC(=O)NC2CCC(O)CC2)cc1 (stereo not given),0.0,nt
Cn1ccnc1SCC1CCCCO1 (stereo not given),2.9,nt
C#CC1(O)CC[C@H]2[C@@H]3CCC4=CCCC[C@@H]4[C@H]3CC[C@@]21C (stereo not given in full),-0.8,0.43
O=S(=O)(N=Nc1c(O)[nH]c2ccccc12)c1ccccc1,-2.2,nt
Cn1nc(-c2ccccc2)c(/C=N/O)c1Cl,nt,-0.42
O=C(Nc1ccccc1C(=O)N1CCCCC1)C1CCCCC1,0.1,-0.16
Cc1cc(Cl)nc(-c2ccccc2)n1,-0.1,0.22
COc1cc(/C=C/C(=O)OCC(=O)NC2CCCCC2)ccc1O,2.8,nt
c1ccc(SCc2nnc(-c3ccccc3)o2)cc1,1.2,0.53
CCOC(=O)c1nn(-c2ccc(OC)cc2)c(C(=O)OCC)c1NC(=O)c1c(Br)cnn1C,0.9,-0.026
O=C1/C(=C/c2ccncc2)CCC/C1=C\c1ccncc1,4.0,-0.018
Cc1c(C(=O)N2CCOCC2)sc(NC(=O)c2ccc3c(c2)OCO3)c1C#N,1.2,-0.8
CN(C(=O)CN1CCC(NC(=O)c2ccccc2Br)CC1)C1CCCCC1,2.2,0.62
Cn1c(=O)c2c(SCC(=O)Nc3nccs3)ccnc2n(C)c1=O,-0.1,-2
CCN(CC)c1nn2nnnc2c2ccccc12,-0.7,nt
CN1CCN(NC(=O)COc2ccc(-c3ccccc3)cc2)CC1,-2.4,-0.6
Cc1ccccc1NC(=O)CSC1=C(C#N)C(c2ccccc2C)C2=C(CCCC2=O)N1 (stereo not given),3.1,nt
N#Cc1c(N)n(CCNC(=O)c2ccc(Cl)cc2)c2nc3ccccc3nc12,-3.5,nt
Cc1nc2ccccc2c(=O)n1CC(=O)N(C1CCCCC1)C1CCCCC1,0.5,0.33
Nn1c(SCc2ccccc2)n[nH]c1=S,-1.1,nt
Cc1sc(NC(=O)c2ccco2)c(C(c2ccccc2)N2CCCC2)c1C (stereo not given),-1.9,nt
CC(C)(C)c1ccc(NC(=S)NCc2cccnc2)cc1,-0.1,nt
CC1CCN(C(=O)COC(=O)CCc2nc3ccccc3s2)CC1,2.3,nt

Seven entries out of the list above, sorted by their value in KSHV LANA nucl, smallest number first.
Molecule	KSHV LANA nucl
Cn1c(=O)c2c(SCC(=O)Nc3nccs3)ccnc2n(C)c1=O	-2
CCOc1ccc(OCC)c(CC(C#N)C(=O)OC)c1 (stereo not given)	-0.69
Cn1nc(-c2ccccc2)c(/C=N/O)c1Cl	-0.42
Cc1cc(Cl)nc(-c2ccccc2)n1	0.22
C#CC1(O)CC[C@H]2[C@@H]3CCC4=CCCC[C@@H]4[C@H]3CC[C@@]21C (stereo not given in full)	0.43
CN(C(=O)CN1CCC(NC(=O)c2ccccc2Br)CC1)C1CCCCC1	0.62
O=S(=O)(c1ccccc1)N1CCN(C2CCCCCCC2)CC1	0.85

Following part:
Structure,BasE inh,KSHV LANA nucl
CC(C)C1CC(c2csc(N)n2)CCO1 (stereo not given),0.2,1.1
Cc1ccc2c(CC(=O)OC(C)C#N)coc2c1 (stereo not given),1.1,nt
c1ccc(CCn2c(-c3cccs3)nc3ccccc32)cc1,1.2,-0.49
CCCN(CC1CC1)C(=O)CSC1=N/C(=C\c2ccco2)C(=O)N1c1ccc(OC(F)F)cc1,0.1,nt
CCCNC(=O)N1CCC(c2ccc3c(c2)OCO3)CC1,-0.5,-0.8
CC(C)NC(=O)C12CC3CC(C1)CC(C(=O)NC(C)C)(C3)C2,-1.1,-0.014
O=S(=O)(c1ccc(Br)cc1)N1CCc2[nH]ncc2C1,0.4,-0.36
O=C1c2ccccc2C(Nc2ccccc2)N1c1ccccn1 (stereo not given),1.5,0.51
O=C(CSc1nnc2ccccn12)N1CCOCC1,1.6,nt
C#CCSc1nsc(SCC#C)c1C#N,2.8,-0.31
COc1ccc(S(=O)(=O)N2CCn3c2nc2ccccc23)cc1,0.3,-1.4
CCOC(=O)Cc1csc(SCc2c(C(=O)OCC)oc3ccccc23)n1,-4.5,nt
CCS(=O)(=O)c1ccc2c(c1)N=Cc1c(C)nn(Cc3ccc(Cl)cc3)c1O2,-0.1,nt
Cc1ccc2c(N)c(C(N)=O)sc2n1,5.3,1.7
O=C1CCC(C(=O)NCc2ccccc2)N1 (stereo not given),-0.6,0.7
Cc1nn(-c2ccccc2)c2nc(-c3cccnc3)cc(C(=O)NNC3=NCCC3)c12,-0.1,nt
O=C(O)Cn1ccccc1=O,0.0,-0.27
O=S(=O)(NNc1ncnc2sccc12)c1ccc(Cl)cc1,-0.9,-0.64
C=C(C)COc1ccc2c(CCCC)cc(=O)oc2c1,0.7,0.16
Cc1ccc(N2CC(C(=O)N3CCC(C(=O)Nc4cccnc4)CC3)CC2=O)cc1 (stereo not given),-0.2,0.025
COc1ccc(-c2noc(CSCC(=O)Nc3ccc(Br)cc3C)n2)cc1OC,-3.3,1.2
CCOc1ccc2nc(NCCNC(=S)NC)c(C#N)cc2c1,3.5,0.1
O=C(COc1ncnc2sccc12)NC(=O)NCc1ccco1,0.6,nt
COc1cccc(/C=C/C(=O)C2C(=O)c3ccccc3C2=O)c1,3.8,nt
CC12CN3CC(C)(CN(C1)C3(C)CSc1c[nH]c3ccccc13)C2=O (stereo not given),-1.4,-0.81
CCN1CCN(CCC(=O)Nc2ccc3c(c2)CCC3)CC1,-2.5,0.51
FC(F)(F)c1ccccc1NC(=S)N1CCCC1,2.2,nt
Cc1onc(-c2c(F)cccc2Cl)c1-c1nc(-c2ccccc2)no1,0.0,1.6
O=C(OCC(=O)N1CCC(Cc2ccccc2)CC1)c1ccc(O)cc1,3.9,nt
CCN1C2=C(C#N)C(=O)CCCN2C(=O)c2ccccc21,-0.1,nt

Next records follow:
Structure,BasE inh,KSHV LANA nucl
NC(=O)CSc1ccc2ccccc2c1,-1.9,1.5
CSc1ccc(C2OC(=O)C(=Cc3ccc(C)o3)C(=O)O2)cc1 (stereo not given),4.9,-0.75
Cc1ccc(N2C(=O)c3ccccc3C2Nc2ccc(S(=O)(=O)N3CCCCCC3)cc2)nc1 (stereo not given),1.1,0.14
CC1CCN(C(=O)CSc2nc3cc4c(cc3cc2C#N)OCO4)CC1,0.7,-1.1
CC(=O)NC1N=C(C)N(c2ccccc2)C1=O (stereo not given),-2.4,-0.003
CC(Sc1ccccc1)C(=O)N1CCN(c2ccccc2F)CC1 (stereo not given),-0.7,nt
CC1CCCCN1C(=O)CCn1cnc2onc(-c3ccc(F)cc3)c2c1=O (stereo not given),-0.6,nt
Cc1ccc(-n2nc3c(c2NC(=O)COc2ccc(Cl)cc2Cl)CS(=O)C3)cc1 (stereo not given),-0.3,0.62
CCOCCC(=O)N1CCCCC1CC (stereo not given),3.5,-0.3
S=c1[nH]nc(CNc2cccc(Cl)c2)o1,-0.4,-0.49
O=C(O)c1ccc(N=Nc2c(O)[nH]c(=O)[nH]c2=O)cc1,-2.0,0.44
CCN1C(=O)/C(=C/c2c(N3CCCCC3)nc3ccccn3c2=O)SC1=S,10,-0.75
CCOc1cc(CNc2ccc3c(c2)CCC3)ccc1O,0.3,-0.19
CCCN1CN(Cc2ccccc2)CC2=C1CC(C)(C)CC2=O,0.4,-0.16
Cc1onc(-c2c(F)cccc2Cl)c1C(=O)Nc1ccc(S(=O)(=O)N2CCOCC2)cc1,0.5,nt
O=c1oc2ccccc2n1S(=O)(=O)c1c(F)c(F)c(F)c(F)c1F,6.0,-0.66
COc1cc2c(cc1OC)C(C(=O)NCC1CCCO1)C(c1cccnc1)N(C)C2=O (stereo not given),-1.0,-0.075
Cc1nc2cc(NC(=O)COc3ccccc3C#N)ccc2n1-c1ccccc1,-5.7,nt
c1ccc(-c2nc(CN3CCNCC3)co2)cc1,-0.1,nt
O=C(CSc1ccc(Br)cc1)Nc1ccc(S(=O)(=O)NCc2ccco2)cc1,-1.4,nt
CC1CCC2C(C1)Nc1c(C(=O)O)cccc1C2(C)C (stereo not given),-1.1,0.78
O=C(Nc1ccc(N2CCCCC2)cc1)Nc1cccc(Cl)c1,1.8,nt
CC(C)(C)C(=O)Cn1nc(Cl)nc1Cl,1.1,-0.038
CCOC(=O)c1cccc(NC(=O)c2ccccc2Cl)c1,-2.2,nt
Cn1cccc1/C=C/C(=O)Nc1ccc2c(c1)CCC2,-1.3,nt
O=C1CCCS(=O)(=O)c2ccccc21,-2.9,-0.36
C=CCN1CCN(C(=O)c2ccccc2C)CC1,3.2,-1.3
CON(C)c1nc(-c2cccnc2)nc2ccccc12,-0.9,nt
N#CC(Nc1ccc(F)cc1)c1ccco1 (stereo not given),0.9,nt
S=C1NN=C(c2ccccc2)C(c2ccccc2)N1 (stereo not given),-1.6,nt

(more compounds)
Structure,BasE inh,KSHV LANA nucl
CCN1C/C(=C\c2cccs2)C(=O)/C(=C/c2cccs2)C1,3.7,-0.13
CCCC(=O)Nc1c(C(=O)c2ccccc2)oc2ccccc12,-1.2,-0.25
O=C(CSc1nnc(COc2ccccc2)o1)c1ccccc1,2.3,-0.93
COC(=O)c1cc2ccsc2n1Cc1cccc(F)c1,-2.5,0.049
COc1ccc(-c2sccc2C(C)C(=O)O)cc1 (stereo not given),-0.6,2.3
CCOC(=O)CN(C)Cc1ccc(OC)cc1OC,3.8,0.49
CCNC(=S)N1c2ccccc2NC2=C(C(=O)CC(C)(C)C2)C1c1ccc(N(C)C)cc1 (stereo not given),1.8,nt
N/C(=N\c1ncn[nH]1)N/N=C/c1c(Cl)cccc1Cl,-0.4,-0.59
Cn1ccnc1Sc1ccnc2cc(Cl)ccc12,-0.2,nt
CC(C)(C)OC(=O)N1CCC(CNC(=O)c2ccccc2)CC1,nt,-0.76
Cn1c(NNC(=O)C(c2ccccc2)c2ccccc2)cc(=O)n(C)c1=O,-0.3,0.39
C/C(=N/NS(=O)(=O)c1ccc(C)cc1)c1c(O)c2ccccc2oc1=O,1.6,-0.21
O=C(NCCCn1ccnc1)c1ccc(S(=O)(=O)Nc2ccccc2)cc1,0.6,nt
COc1cc(OC)cc(C(=O)OCC(=O)N2CCCC2)c1,-2.1,nt
CCOC(=O)c1nc(N2CCOCC2)c2ccccc2n1,0.1,0.2
CCCNC(=O)CSc1nnc(C)o1,1.2,nt
CCCCOC(=O)C1COc2ccccc2O1 (stereo not given),3.5,nt
Cn1c(SCCOc2ccccc2)nc2ccccc21,3.8,nt
Cc1ccc(-c2cc(C(F)F)nc(N3CCCCC3)n2)cc1,1.4,-0.9
CC(C)CC(NS(=O)(=O)c1ccccc1)C(=O)O (stereo not given),-1.8,-0.34
NC[C@H]1O[C@H](O[C@H]2[C@H](O)[C@@H](O[C@H]3O[C@H](CO)[C@@H](O)[C@H](N)[C@H]3O)[C@H](N)C[C@@H]2N)[C@H](N)C[C@@H]1O,nt,-1.3&0.66
Cc1cccc2cc(CN(Cc3ccco3)C(=O)c3ccccc3)c(=O)[nH]c12,3.2,0.18
O=C(CCNS(=O)(=O)c1cccc2nsnc12)NC1CCCCC1,1.0,0.71
CCCCCC(=O)/C=C/C=C\CCCCCCCC(=O)O,1.7,0.12
CC(C)NC(=O)NCc1cccn1Cc1ccccc1,1.3,-1.3
COc1ccccc1OCCC(=O)Nc1nc(C)cs1,0.6,nt
Cc1ccc(S(=O)(=O)N2CN3CN(C2)CN(S(=O)(=O)c2ccc(C)cc2)C3)cc1,2.0,nt
C=Cc1nc2c(cnn2-c2ccccc2)c(=O)[nH]1,0.0,nt
NS(=O)(=O)c1ccc(NC(=O)CSCC(=O)O)cc1,0.4,-0.36
O=C(O)c1ccccc1/C=N/NC(=O)C1CCCCC1,0.3,nt

Single entries from the entries so far:
BasE inh with CC(C)CC(NS(=O)(=O)c1ccccc1)C(=O)O (stereo not given) is entered as -1.8
BasE inh with CCOC(=O)c1cccc(NC(=O)c2ccccc2Cl)c1 is entered as -2.2
BasE inh with O=C1c2ccccc2C(Nc2ccccc2)N1c1ccccn1 (stereo not given) is entered as 1.5

(continued)
Structure,BasE inh,KSHV LANA nucl
COc1ccc(S(=O)(=O)N(C)c2ccc(C(=O)N3CCN(c4ccccc4F)CC3)cc2)cc1OC,0.6,-0.65
N#Cc1c2c(c(NCc3ccccn3)n3c1nc1ccccc13)CCCC2,6.4,-0.69
Cc1ccccc1C(=O)NCCn1cc(SCC(=O)Nc2nccs2)c2ccccc21,1.8,-2.2
Cc1nccc(-c2cccc(C#N)c2)n1,2.2,0.55
COc1ccc(CNC(=O)CCn2cnc3c2c(=O)n(C)c(=O)n3C)cc1,-0.7,-0.69
O=C(Nc1ccccc1)c1c(F)cccc1F,-1.2,nt
Fc1ccc(CNCc2cccn2-c2nnc(N3CCCC3)s2)cc1,-3.3,nt
